TDP1 inh: blocks human tyrosyl-DNA phosphodiesterase 1; Q9NUW8; 0.28% of 350,000 active; recombinant TDP1, AlphaScreen DNA substrate cleavage; Potency, µM (doses to about 130 µM), for the others: at the top dose activity change, negative = inhibition, usual class: inhibitors; also: nearly all actives have a fitted effect of over 40% in size
Target sequence (Q9NUW8 whole entry, looked up): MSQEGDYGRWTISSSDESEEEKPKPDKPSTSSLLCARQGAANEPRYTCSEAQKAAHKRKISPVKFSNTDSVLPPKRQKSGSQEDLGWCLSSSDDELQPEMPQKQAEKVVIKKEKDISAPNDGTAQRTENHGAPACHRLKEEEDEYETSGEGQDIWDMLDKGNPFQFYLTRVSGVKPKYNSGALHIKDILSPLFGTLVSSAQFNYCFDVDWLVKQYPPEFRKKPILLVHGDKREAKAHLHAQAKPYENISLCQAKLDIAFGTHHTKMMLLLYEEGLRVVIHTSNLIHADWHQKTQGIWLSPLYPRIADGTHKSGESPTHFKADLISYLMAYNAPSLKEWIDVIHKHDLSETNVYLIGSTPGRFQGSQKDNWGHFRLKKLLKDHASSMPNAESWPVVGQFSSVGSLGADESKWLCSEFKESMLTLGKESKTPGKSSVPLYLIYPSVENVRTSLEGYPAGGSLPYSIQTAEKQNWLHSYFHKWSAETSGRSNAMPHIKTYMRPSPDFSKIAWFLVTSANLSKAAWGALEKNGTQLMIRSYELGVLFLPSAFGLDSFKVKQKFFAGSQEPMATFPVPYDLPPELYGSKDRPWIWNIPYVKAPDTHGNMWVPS
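Enzyme-compound mixtures sat 15 min at room temperature, followed by a 5 min reaction with 15 nM final substrate and 10 min with AlphaScreen beads. Recombinant human Tdp1 was used at 1 nM final.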
N370S GC: N370S glucocerebrosidase modulation, Gaucher chaperone candidate; P04062; N370S GC spleen homogenate, 4MU-glucoside fluorescence; Potency, µM (titrated, usually from 59.4 µM), for the others: top-dose activity change, negative = inhibition, usual class: inhibitors; 0.092% of 330,000 active; AID 2101;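 also: 0% = full enzyme activity and -100% = no enzyme basal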
* hit, by the source's call; ? = inconclusive; / = not tested or not shown; & = joins results of further samples; [ ] = another dose, or the depositor's remark. Calls follow the shape of the dose curve; as a rule, active = well fitted curve in the direction sought with a large enough effect; inconclusive = small, poorly fitted or top-dose-only effect, or another doubt; inactive = no such curve, though single readings can be large; an effect the other way counts as inactive or inconclusive. Unless noted, % is scaled to controls: 0 for no effect and ±100 for the full control effect; potency is read from the fitted curve at half-maximal effect. Only part of the results is shown, and most or all hits are left out here.

SMILES | TDP1 inh | N370S GC
CCCCn1c(SCn2nnc3ccccc3c2=O)nc2cc(S(N)(=O)=O)ccc21 | -5% | -1%
CCCCN(CC)CCCNC(=O)c1cc2c(=O)oc3ccc(C)cc3c2s1 | 7% | /
COC(=O)[C@@]12CCCCN1[C@H](c1ccc(-c3ccc(OC)cc3)cc1)[C@@H]1C(=O)N(C)C(=O)[C@@H]12 | 0% | -19%
CCOc1cc(N2CCOCC2)c(OCC)cc1NC(=O)Cn1[nH]c(=O)c2ccccc2c1=O | -1%&0% | -1%&-12%
CCN(CC)S(=O)(=O)c1ccc(C(=O)N2CCN(c3ncccn3)CC2)cc1 | / | -16%
COc1ccc(C(C(=O)NC2CCCCC2)N(C(=O)CCl)c2ccc(OC)cc2)cc1 (centres undefined) | 4% | -1%
O=C(c1ccc2nc[nH]c2c1)N1CCN(c2cccc(C(F)(F)F)c2)CC1 | 5% | ?
Cc1cccc(-n2c(CCn3nc(C)c([N+](=O)[O-])c3C)n[nH]c2=S)c1 | 0% | 9%
Cc1ccc(S(=O)(=O)NCCC(=O)NCC(c2cccs2)N2CCOCC2)cc1 (centres undefined) | / | -18%
O=C(CCc1nnc(CCCCc2ccccc2)o1)NCCc1cccnc1 | -1% | -4%

Full records, looked up by structure. Order of screens: TDP1 inh, N370S GC
`COc1ccc(C(C(=O)NC2CCCCC2)N(C(=O)CCl)c2ccc(OC)cc2)cc1` (centres undefined) across the screens: 4%, -1%
`O=C(CCc1nnc(CCCCc2ccccc2)o1)NCCc1cccnc1` across the screens: -1%, -4%

Some of the entries above in a different format.
CCOc1cc(N2CCOCC2)c(OCC)cc1NC(=O)Cn1[nH]c(=O)c2ccccc2c1=O
  TDP1 inh: -1%&0%
  N370S GC: -1%&-12%

O=C(c1ccc2nc[nH]c2c1)N1CCN(c2cccc(C(F)(F)F)c2)CC1
  TDP1 inh: 5%
  N370S GC: ?

Cc1cccc(-n2c(CCn3nc(C)c([N+](=O)[O-])c3C)n[nH]c2=S)c1
  TDP1 inh: 0%
  N370S GC: 9%

O=C(CCc1nnc(CCCCc2ccccc2)o1)NCCc1cccnc1
  TDP1 inh: -1%
  N370S GC: -4%

Returning to the listing, repeating the 2 entries before the break.
SMILES | TDP1 inh | N370S GC
Cc1ccc(S(=O)(=O)NCCC(=O)NCC(c2cccs2)N2CCOCC2)cc1 (centres undefined) | / | -18%
O=C(CCc1nnc(CCCCc2ccccc2)o1)NCCc1cccnc1 | -1% | -4%
Cc1cc2ncn(N)c2cc1C | 2% | 4%
COc1ccc(CN(CCCN2CCOCC2)C(=O)Nc2ccccc2)cc1OC | 1% | -7%
CC(=O)N1N=C(c2cccs2)CC1c1cc2cc(C)ccc2nc1Cl (centres undefined) | / | -9%
CC1Oc2ccccc2N(CC(=O)NCCc2ccccc2)C1=O (centres undefined) | 6% | -7%
O=C(Cn1cnc2c(nnn2Cc2ccc(Cl)cc2)c1=O)NCc1ccco1 | 0% | 8%
CC1=C(C(=O)NCCc2ccc(C)cc2)C2(CCC(C)CC2)OC1=O (centres undefined) | 1% | 3%
O=C(NCCCNC(=O)c1ccccn1)c1ccc(F)cc1 | / | 1%
O=C(O)CCS(=O)(=O)c1nc(-c2cccs2)cc(C(F)(F)F)n1 | 6% | -18%
O=C(COc1ccc2ccc(=O)oc2c1)Nc1nccs1 | 5% | -6%
Cc1nc(COc2cc3oc(=O)cc(C)c3cc2Cl)cs1 | 1% | ?
O=c1[nH]cc(-c2ccc(Br)cc2)n1Cc1ccccc1 | / | -4%
O=C(CNC(=O)c1ccc(N2C(=O)c3ccccc3C2=O)cc1)OCC(=O)c1ccc(Cl)cc1 | 5% | -17%
CC1CCCN(S(=O)(=O)c2ccc(NC(=O)[C@@H]3CCCN3C(=O)c3cccs3)cc2)C1 (some centres undefined) | 2% | /
CCOCCOC(=O)C1=C(C)NC2=C(C(=O)CC(c3cccs3)C2)C1c1ccsc1 (centres undefined) | -1% | 21%
COC(=O)c1ccc(S(=O)(=O)N2CCC(C(N)=O)CC2)n1C | 1% | -1%
CCOc1nc2cnccc2n(CC(=O)Nc2ccccc2F)c1=O | 5% | 0%
Clc1ccccc1CSc1nnc([C@@H]2CCCN2)o1 | / | -4%
CCc1sc(C(=O)N2CCCN(C)CC2)cc1Br | -1% | 2%
O=C(CNC(=O)c1cccnc1)N/N=C/c1cccnc1 | / | 3%
O=C(c1ccc(F)cc1)N1CCC(O)(c2cccnc2)CC1 | 0% | 2%
Cc1ccc(OCCn2cccn2)c(C)c1 | 0% | -11%
COc1cc(OC)c(NC(=O)CCNS(=O)(=O)c2ccc3c(c2)CC(C)N3C(C)=O)cc1Cl (centres undefined) | 3% | 1%
Cc1ccccc1-n1ncc2c1CC(C)(C)CC2NC(=O)CCN1CCCCC1=O (centres undefined) | 2% | -4%
Cc1cc(C)cc(OCC(=O)Nc2ccc(F)cc2)c1 | -2% | 6%
CN1C(=S)N(c2ccccc2)C(=O)/C1=C/c1ccco1 | 6% | -10%
CCOC(=O)c1ccc(NCC(O)COc2ccccc2)cc1 (centres undefined) | 1% | -7%
COc1ccc(-n2nc3c(N4CCC(C(=O)NCCc5ccccc5C)CC4)nnc(C)c3c2C)cc1 | 6% | -3%
COc1ccccc1CCc1nnc(CCC(=O)NCC2CCCO2)o1 (centres undefined) | 1% | 0%
CC(OC(=O)C1CCN(c2ccc(C(F)(F)F)cn2)CC1)C(=O)Nc1cccc([N+](=O)[O-])c1 (centres undefined) | 2% | /
O=C(CN1C(=O)NC2(CCCC2)C1=O)Nc1cc(C(F)(F)F)ccc1N1CCCCC1 | / | 3%
O=C(Cc1ccc(NC2=NC3CS(=O)(=O)CC3S2)cc1)NCCc1ccccc1 (centres undefined) | / | -8%
Cc1cccc(N2CCN(S(=O)(=O)c3ccc4c(c3)CCN4C(=O)CCC(=O)O)CC2)c1C | -2% | 3%
CNC(=O)CS(=O)CC(=O)Nc1cc(OCCOC)c(Cl)cc1Cl (centres undefined) | / | -9%
O=C(CNc1ccc(Cl)cc1)c1ccc(Br)cc1 | -3% | -3%
Cc1ccc(OS(=O)(=O)c2ccc(-c3csc(C)n3)s2)c(C)c1 | / | 9%
CN1CCCCc2c1[nH]c1ccccc1c2=O | 2% | -6%
Cc1c(C(=O)N2CCN(C(=O)c3ccco3)CC2)oc2c(Cl)cccc12 | / | 1%
CCc1ccc(NC(=O)CC2C(=O)NCCN2C(=S)Nc2ccccc2)cc1 (centres undefined) | 3% | -5%
NC(=S)N/N=C/c1ccc(-c2ccccc2)o1 | 7% | -12%
Cc1ccc(O)c(C(=O)CC(=O)c2ccc(Cl)cc2)c1 | / | 18%
Cc1ccccc1NC(=O)c1nn(-c2ccc(F)c(F)c2)ccc1=O | -3% | -1%
Cc1ccc(SCC(=O)Nc2ccc(N3CCOCC3)cc2)cc1C | 6% | /
Cn1c(=O)c2c(nc(NCc3ccc4c(c3)OCO4)n2C)n(C)c1=O | 3% | 4%
O=C(COc1cccc(Br)c1)NN=C1c2ccccc2-c2ccccc21 | 3% | 23%
Cc1nc(COc2ccc(C(=O)Nc3ccccc3N3CCOCC3)cc2)cs1 | -3%[0.0935 µM] | 2%
CCOc1ccccc1-n1c(SCC(=O)N2CCOCC2)nc2ccccc2c1=O | / | -1%
C=CCn1c(SCC(=O)c2c(N)n(C)c(=O)n(C)c2=O)nnc1-c1ccccc1F | 5% | -10%
CC(=O)c1cnn(-c2ccc(Cl)c(Cl)c2Cl)c1C | -4% | 7%
O=C(CNC(=S)N(Cc1ccccc1)Cc1cccnc1)NC1CCCC1 | 3% | ?
Cc1ccc(C)c(S(=O)(=O)NC(Cc2c[nH]c3ccccc23)C(=O)O)c1 (centres undefined) | 8% | 17%

Going on with the list:
SMILES | TDP1 inh | N370S GC
CCOC(=O)Cn1nc(C)c(NC(=O)COc2ccc(C)c(C)c2)c1C | 2%&2% | 14%
Cc1ccc(NC2CCCN(C(=O)CCn3nccc3C)C2)cc1C (centres undefined) | 4% | 20%
CC(=O)C1CCCN(C(=O)c2ccc3nc(Cc4cccc(Cl)c4)oc3c2)C1 (centres undefined) | 5% | -5%
COCCN(C(=O)COC(=O)C1CC1C)c1c(N)n(Cc2ccccc2)c(=O)[nH]c1=O (centres undefined) | -4% | 6%
Cc1ccc(C(=O)CC(=O)c2cc(Cl)ccc2O)cc1 | 5% | 16%
Cc1ccc(CNS(=O)(=O)c2ccc(C(=O)N(C)C)s2)cc1 | -1% | /
COc1ccc(N2CC(C(=O)Nc3ccccc3N3CCCC3)CC2=O)c(OC)c1 (centres undefined) | -9% | -5%
COc1cccc(OCC(=O)Nc2ccccc2NC(C)=O)c1 | 4% | ?
COc1ccc(CCCc2nnc(SCC(=O)Nc3cccc(C)c3)o2)cc1 | 2% | 0%
COc1ccc(/C=N/N(C)c2cc(=O)n(C)c(=O)[nH]2)cc1OC | -1% | -1%
COC(=O)c1cccc(NC(=O)Cn2nnc3ccccc32)c1 | 2% | 0%
COc1cc(SC)ccc1C(=O)OCC(=O)NCCC1=CCCCC1 | 6%[0.505 µM] | -7%
Cc1ccc(C(C(=O)NC(C)(C)C)N(Cc2ccccc2)C(=O)c2snc(C(N)=O)c2N)o1 (centres undefined) | 8% | 9%
COC(=O)CN(c1nc(C)c(Cl)c(OC)n1)S(=O)(=O)c1ccc(C)cc1 | -4% | 3%
O=C1NCCN1Cc1ccccc1 | 3% | 3%
O=C(c1ccccc1)c1cccn1CC(=O)N1CCN(c2ccc(F)cc2)CC1 | 3% | 4%
CCn1c2ccccc2c2nc3cc(S(=O)(=O)N4CCOCC4)ccc3nc21 | 1% | -20%
Cc1ccc(F)cc1NC(=O)CCOc1ccccc1 | 1% | 5%
CC(=O)Nc1ccc(NC(=O)C(c2ccccc2)c2ccccc2)cc1 | 1% | 0%
Cc1ccccc1N1CC(C(=O)Nc2ccc(S(=O)(=O)N3CCCC3)cc2)CC1=O (centres undefined) | / | -4%
Nc1cccc(Oc2cnccn2)c1 | / | -15%
CS(=O)(=O)c1ccc(Cl)c(NC(=O)Cc2ccccc2F)c1 | / | -4%
O=C(COC(=O)C1(c2ccccc2)CC1)NNC(=O)c1ccccc1 | / | -20%
O=C(Nc1ccon1)c1sc2cc(F)ccc2c1Cl | 5% | 6%
O=C(COc1ccccc1)N1CCN(C(=O)Cc2ccccc2)CC1 | 2% | 1%
CN(C)CCNC(=O)c1ccc2c(c1)N(Cc1ccccc1)C(=O)c1ccccc1S2(=O)=O | 1% | /
CC(C)C1Cc2nc(Cl)c(C#N)cc2CO1 (centres undefined) | 4% | 4%
CCOC(=O)C1CCN(c2c(NCCCN3CCCCC3)c(=O)c2=O)CC1 | 3% | -3%
CN1C(=O)[C@H]2[C@@H](/C=C/c3ccccc3)N3C(=O)CN(CCO)C(=O)[C@@]3(C)[C@H]2C1=O | / | 1%
COc1ccc2oc(C(=O)OCC(=O)NC3CC3)c(C)c2c1 | 3% | 1%
CCc1ccc(C2=NN(C(=O)OC)C(O)(C(F)(F)F)C2)cc1 (centres undefined) | 0% | 1%
CCOC(=O)C1=C(C)NC(C)=C(C(=O)OCC)C1C(=O)OCC(=O)N1CCOCC1 | 1% | /
CC(C)(C)NC(=O)C(c1ccsc1)N(CCc1ccccc1)C(=O)Cn1nnc2ccccc21 (centres undefined) | 0% | 15%
C=C1C(=O)O[C@H]2C[C@]3(C)C([C@@H](OC(=O)/C(C)=C/C)[C@H]12)[C@](C)(O)CC[C@H]3O (some centres undefined) | / | -13%
CCOC(=O)C(CSCc1ccccc1)NC(=O)OC(C)(C)C (centres undefined) | -1% | 1%
CCCCCn1c(=O)c(C(=O)c2ccccc2)nc2ccccc21 | 3% | 11%[12.8 µM]
COc1ccc(C(=O)Nn2cnnc2)cc1OC | / | -6%
CC(=O)Nc1ccc(NS(=O)(=O)c2ccc(C)cc2)c([N+](=O)[O-])c1 | 9% | 4%
CC(Oc1cc2oc(=O)c3c(c2cc1Cl)CCC3)C(=O)NCc1ccccn1 (centres undefined) | 6% | 11%
CCN(CC(=O)Nc1c(F)cccc1F)C(=O)Cc1ccc(S(=O)(=O)N2CCOCC2)s1 | 5% | -21%
CC(C)C(=O)NNc1ccccc1 | 5% | -1%
CN1CCCC1CCOC(C)(c1ccccc1)c1ccc(Cl)cc1 (centres undefined) | 8% | -24%
COc1cccc(/C=N/n2nnnc2N)c1 | 1% | 17%
Cc1ccc(-c2nc(COC(=O)C3=NN(c4ccccc4)C(=O)CC3)cs2)cc1 | 0% | /
O=C(Nc1ccc(C(=O)N2CCCC2)cc1)Nc1ccc(Cl)cc1Cl | 8% | -17%
Cc1cccc(-c2nc(=S)c3c(n2Cc2ccco2)CCCC3)c1 | 5% | 26%
CCOC(=O)C1CCN(C(=O)c2cc3sc(C)cc3n2C)CC1 | 3% | /
COCCNC(=O)C(c1ccc(O)cc1)N(C(=O)CCC(=O)Nc1nccs1)c1cccc(C)c1 (centres undefined) | 3% | -8%
